High-throughput results deposited in PubChem by Broad Institute.
A1 apoptosis 2: blocks A1, raising caspase activity; MEF A1-2A-BIM cells, caspase-Glo luminescence, 3 h; percent of clofoctol response, DMSO zero; caspase activation, % (concentration not given with the values); 24,000 tested, under 10 active; in the data active means caspase activation above about 5.9%;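 further: wells of about 30 µL received 50 nL stock; the first replicate is given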
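System: mouse embryonic fibroblasts co-expressing A1 and BIM (A1-2A-BIM), primed for A1 dependence; amount: 2500 cells/well; doses: 50 nL pinned compound; schedule: cells settled overnight, compound exposure 3 h at 37 °C, 5% CO2; detection: Caspase-Glo 3/7 luminescence, 1 h at room temperature; read-out: Caspase-3/7 activation, seen as rise in luminescence signal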
* = called active by the depositor. A portion of the library. The share of hits here may be higher or lower than overall.

SMILES	A1 apoptosis 2
Cc1ccc(S(=O)(=O)N(C)C[C@H]2Oc3ccc(NC(=O)Nc4ccc(C(F)(F)F)cc4)cc3C(=O)N([C@H](C)CO)C[C@@H]2C)cc1	0.3
COc1ccc(S(=O)(=O)N(C)C[C@@H]2Oc3ccc(NC(=O)Nc4ccc(C(F)(F)F)cc4)cc3C(=O)N([C@H](C)CO)C[C@@H]2C)cc1	0.2
COc1ccc(CN(C)C[C@H]2OCCCC[C@H](C)Oc3ccc(NS(=O)(=O)c4cccs4)cc3C(=O)N([C@@H](C)CO)C[C@@H]2C)cc1	0.5
Cc1ccc(S(=O)(=O)N(C)C[C@H]2OCCCC[C@H](C)Oc3ccc(NS(=O)(=O)c4cn(C)cn4)cc3C(=O)N([C@H](C)CO)C[C@@H]2C)cc1	0.1
Cc1noc(C)c1NC(=O)N(C)C[C@H]1Oc2c(cccc2N(C)C)C(=O)N([C@@H](C)CO)C[C@H]1C	1.5
C[C@@H]1CN([C@@H](C)CO)C(=O)c2cc(NC(=O)Nc3ccc(F)cc3)ccc2O[C@H]1CN(C)S(=O)(=O)c1ccccc1	0.9
COc1cc2c(cc1O)C(C1CC1)N(Cc1cc3c(cc1Br)OCO3)CC2 (stereo unspecified)	-0.2
COc1ccc(S(=O)(=O)Nc2ccc3c(c2)C(=O)N([C@@H](C)CO)C[C@H](C)[C@@H](CN(C)S(=O)(=O)c2c(C)noc2C)OCCCC[C@@H](C)O3)cc1	-0.2
Cc1noc(C)c1S(=O)(=O)Nc1cccc2c1O[C@@H](CN(C)CC1CC1)[C@@H](C)CN([C@H](C)CO)C2=O	0.0
COc1ccc(NC(=O)Nc2ccc3c(c2)C(=O)N([C@H](C)CO)C[C@H](C)[C@H](CN(C)CC2CC2)OCCCC[C@H](C)O3)cc1	-0.8
C[C@@H]1CCCCO[C@@H](CN(C)C(=O)CCCN(C)C)[C@@H](C)CN([C@H](C)CO)C(=O)c2cc(NC(=O)CCC(F)(F)F)ccc2O1	-1.3
C[C@@H]1CCCCO[C@H](CN(C)C(=O)Nc2cccc3ccccc23)[C@@H](C)CN([C@@H](C)CO)C(=O)c2cc(NS(=O)(=O)c3ccccc3)ccc2O1	0.2
C[C@@H]1CN([C@@H](C)CO)C(=O)c2cc(NC(=O)Nc3ccc(C(F)(F)F)cc3)ccc2O[C@@H](C)CCCCO[C@@H]1CN(C)CC1CCCCC1	-0.5
C[C@@H]1CN([C@@H](C)CO)C(=O)CCCn2cc(nn2)CO[C@H]1CN(C)C(=O)OCc1ccccc1	-0.5
C[C@H](CO)N1C[C@H](C)[C@@H](CN(C)Cc2ccc(-c3ccccc3)cc2)Oc2c(NS(=O)(=O)c3cccs3)cccc2C1=O	0.0
Cc1cc(C(=O)Nc2cccc3c2O[C@@H](CN(C)S(=O)(=O)c2cccs2)[C@@H](C)CN([C@@H](C)CO)C3=O)n(C)n1	-0.7
CC(/C=C/C(=O)NO)=C\c1cccc(OC[C@@H]2[C@H]3C[C@H]4c5[nH]c6ccccc6c5CCN4C[C@@H]3CC[C@@H]2O)c1	0.1
Cc1noc(C)c1NC(=O)Nc1ccc2c(c1)C(=O)N([C@H](C)CO)C[C@H](C)[C@H](CN(C)C(=O)NC1CCCCC1)OCCCC[C@H](C)O2	0.0
C[C@H](CO)N1C[C@H](C)[C@H](CN(C)Cc2ccccc2)OCCCC[C@H](C)Oc2ccc(NC(=O)Nc3cccc4ccccc34)cc2C1=O	0.1
Cc1ccc(S(=O)(=O)Nc2ccc3c(c2)C(=O)N([C@H](C)CO)C[C@H](C)[C@@H](CN(C)Cc2ccc(C(=O)O)cc2)O3)cc1	0.2
C[C@H]1CCCCO[C@H](CN(C)Cc2ccc3c(c2)OCO3)[C@@H](C)CN([C@@H](C)CO)C(=O)c2cc(NS(C)(=O)=O)ccc2O1	0.2
C[C@@H]1CN([C@H](C)CO)C(=O)c2cc(NC(=O)C3CCCCC3)ccc2O[C@@H](C)CCCCO[C@@H]1CN(C)C(=O)NC1CCCCC1	1.2
COc1ccc(CN(C)C[C@@H]2Oc3ccc(NC(=O)Cc4ccccc4)cc3C(=O)N([C@@H](C)CO)C[C@H]2C)cc1	-0.4
CNC[C@H]1OCc2cn(nn2)CCCC(=O)N([C@H](C)CO)C[C@@H]1C	-1.1
COc1ccc(NC(=O)Nc2ccc3c(c2)C(=O)N([C@H](C)CO)C[C@H](C)[C@H](CN(C)S(=O)(=O)c2ccc(Cl)cc2)OCCCC[C@@H](C)O3)cc1	0.7
C[C@H](CO)N1C[C@H](C)[C@@H](CN(C)Cc2ccncc2)Oc2ccc(NC(=O)Nc3ccc4c(c3)OCO4)cc2CC1=O	1.6
C[C@H](CO)N1C[C@H](C)[C@H](CN(C)S(=O)(=O)c2ccccc2)Oc2ccc(NC(=O)c3ccncc3)cc2CC1=O	-0.7
C[C@@H]1CCCCO[C@H](CN(C)C)[C@@H](C)CN([C@@H](C)CO)C(=O)c2cc(NC(=O)Nc3ccccc3)ccc2O1	-0.4
C[C@@H]1CCCCO[C@@H](CN(C)C(=O)Nc2ccc(C(F)(F)F)cc2)[C@@H](C)CN([C@H](C)CO)C(=O)c2cc(NC(=O)Nc3ccc(F)cc3)ccc2O1	-1.1
COc1ccc(S(=O)(=O)N(C)C[C@H]2Oc3ccc(NC(=O)c4ccncc4)cc3C(=O)N([C@@H](C)CO)C[C@H]2C)cc1	-0.4

3 compounds picked at random from those above:
SMILES	A1 apoptosis 2
COc1ccc(S(=O)(=O)N(C)C[C@H]2Oc3ccc(NC(=O)c4ccncc4)cc3C(=O)N([C@@H](C)CO)C[C@H]2C)cc1	-0.4
C[C@@H]1CCCCO[C@@H](CN(C)C(=O)Nc2ccc(C(F)(F)F)cc2)[C@@H](C)CN([C@H](C)CO)C(=O)c2cc(NC(=O)Nc3ccc(F)cc3)ccc2O1	-1.1
C[C@@H]1CN([C@@H](C)CO)C(=O)c2cc(NC(=O)Nc3ccc(F)cc3)ccc2O[C@H]1CN(C)S(=O)(=O)c1ccccc1	0.9

Gathered by group: the entries above with a CF3 group.
SMILES	A1 apoptosis 2
Cc1ccc(S(=O)(=O)N(C)C[C@H]2Oc3ccc(NC(=O)Nc4ccc(C(F)(F)F)cc4)cc3C(=O)N([C@H](C)CO)C[C@@H]2C)cc1	0.3
COc1ccc(S(=O)(=O)N(C)C[C@@H]2Oc3ccc(NC(=O)Nc4ccc(C(F)(F)F)cc4)cc3C(=O)N([C@H](C)CO)C[C@@H]2C)cc1	0.2
C[C@@H]1CCCCO[C@@H](CN(C)C(=O)CCCN(C)C)[C@@H](C)CN([C@H](C)CO)C(=O)c2cc(NC(=O)CCC(F)(F)F)ccc2O1	-1.3
C[C@@H]1CN([C@@H](C)CO)C(=O)c2cc(NC(=O)Nc3ccc(C(F)(F)F)cc3)ccc2O[C@@H](C)CCCCO[C@@H]1CN(C)CC1CCCCC1	-0.5
C[C@@H]1CCCCO[C@@H](CN(C)C(=O)Nc2ccc(C(F)(F)F)cc2)[C@@H](C)CN([C@H](C)CO)C(=O)c2cc(NC(=O)Nc3ccc(F)cc3)ccc2O1	-1.1

Following part.
SMILES	A1 apoptosis 2
C[C@@H]1CCCCO[C@H](CN(C)Cc2ccccc2)[C@@H](C)CN([C@H](C)CO)C(=O)c2cc(NC(=O)Nc3ccc4c(c3)OCO4)ccc2O1	0.2
Cc1noc(C)c1NC(=O)N(C)C[C@@H]1OCCCC[C@@H](C)Oc2ccc(NC(=O)CCCCCC(=O)Nc3ccccc3N)cc2C(=O)N([C@H](C)CO)C[C@@H]1C	0.7
CNC[C@H]1Oc2ccc(NS(=O)(=O)c3ccc(Cl)cc3)cc2CC(=O)N([C@@H](C)CO)C[C@H]1C	-0.8
Cc1noc(C)c1S(=O)(=O)Nc1ccc2c(c1)C(=O)N([C@H](C)CO)C[C@@H](C)[C@@H](CN(C)S(=O)(=O)c1ccc(F)cc1)O2	0.1
Cc1noc(C)c1S(=O)(=O)N(C)C[C@H]1Oc2ccc(NC(=O)C3CCCCC3)cc2CC(=O)N([C@@H](C)CO)C[C@@H]1C	0.9
COc1ccc(S(=O)(=O)N(C)C[C@@H]2Oc3ccc(NC(=O)Nc4ccc5c(c4)OCO5)cc3C(=O)N([C@H](C)CO)C[C@@H]2C)cc1	-1.1
C[C@@H]1CCCCO[C@H](CN(C)Cc2ccncc2)[C@@H](C)CN([C@@H](C)CO)C(=O)c2cc(NC(=O)Nc3ccccc3)ccc2O1	-0.9
C[C@@H]1CN([C@@H](C)CO)C(=O)c2cc(NC(=O)CCC(F)(F)F)ccc2O[C@@H](C)CCCCO[C@H]1CN(C)Cc1ccc2c(c1)OCO2	0.3
CNC[C@H]1OCCCC[C@H](C)Oc2ccc(NC(=O)Nc3c(C)noc3C)cc2C(=O)N([C@H](C)CO)C[C@H]1C	0.6
CC(C)NC(=O)N(C)C[C@H]1Oc2ccc(NC(=O)C3CC3)cc2CC(=O)N([C@@H](C)CO)C[C@@H]1C	1.5
O=C1O[C@@H](c2ccccc2)[C@@H](c2ccccc2)N2[C@@H](c3ccc(OCCO)cc3)[C@]3(C(=O)Nc4ccc(C#CCCO)cc43)[C@@H](C(=O)NC[C@H](O)c3ccccc3)[C@H]12	0.4
C[C@H](CO)N1C[C@H](C)[C@@H](CN(C)C(=O)Nc2cccc3ccccc23)Oc2ccc(NC(=O)Nc3ccc(C(F)(F)F)cc3)cc2C1=O	-0.1
Cc1ccc(S(=O)(=O)N(C)C[C@H]2OCCCC[C@@H](C)Oc3ccc(NS(=O)(=O)c4ccc(F)cc4)cc3C(=O)N([C@@H](C)CO)C[C@H]2C)cc1	-2.1
C[C@@H]1CCCCO[C@H](CN(C)CC2CCCCC2)[C@H](C)CN([C@H](C)CO)C(=O)c2cc(NC(=O)c3ccccc3)ccc2O1	0.0
C[C@@H]1CN([C@H](C)CO)C(=O)c2cccc(NS(=O)(=O)c3ccc(Cl)cc3)c2O[C@@H]1CN(C)C(=O)Nc1ccc(F)cc1	-0.2
Cc1noc(C)c1S(=O)(=O)Nc1ccc2c(c1)C(=O)N([C@H](C)CO)C[C@@H](C)[C@H](CN(C)C)OCCCC[C@@H](C)O2	-0.7
Cc1ccc(S(=O)(=O)Nc2cccc3c2O[C@@H](CN(C)Cc2ccc(C(F)(F)F)cc2)[C@@H](C)CN([C@@H](C)CO)C3=O)cc1	0.4
C[C@@H]1CN([C@H](C)CO)C(=O)c2cccc(NC(=O)Nc3ccc(C(F)(F)F)cc3)c2O[C@H]1CN(C)C(=O)Nc1ccc2c(c1)OCO2	-0.1
COc1ccc(CN(C)C[C@@H]2OCCCC[C@H](C)Oc3ccc(NC(=O)Nc4cccc5ccccc45)cc3C(=O)N([C@@H](C)CO)C[C@H]2C)cc1	0.4
COc1ccc(NC(=O)N(C)C[C@H]2Oc3ccc(NC(=O)C4CCCCC4)cc3CC(=O)N([C@H](C)CO)C[C@@H]2C)cc1	-0.3
COc1ccc(NC(=O)Nc2ccc3c(c2)C(=O)N([C@H](C)CO)C[C@H](C)[C@@H](CN(C)S(=O)(=O)c2cccs2)OCCCC[C@@H](C)O3)cc1	-0.7
Cc1noc(C)c1S(=O)(=O)Nc1ccc2c(c1)C(=O)N([C@H](C)CO)C[C@H](C)[C@@H](CN(C)Cc1ccccc1)O2	-1.0
Cc1noc(C)c1S(=O)(=O)Nc1ccc2c(c1)C(=O)N([C@@H](C)CO)C[C@@H](C)[C@@H](CN(C)C(=O)Nc1ccccc1)OCCCC[C@@H](C)O2	0.1
C[C@@H]1CCCCO[C@@H](CN(C)C(=O)Cc2ccccc2)[C@@H](C)CN([C@H](C)CO)C(=O)c2cc(NS(=O)(=O)c3ccccc3)ccc2O1	-0.4
C[C@H](CO)N1C[C@H](C)[C@H](CN(C)Cc2ccc3c(c2)OCO3)OCc2cnnn2CCCC1=O	-0.5
COc1ccc(S(=O)(=O)Nc2ccc3c(c2)CC(=O)N([C@H](C)CO)C[C@@H](C)[C@@H](CN(C)Cc2ccc(C(=O)O)cc2)O3)cc1	0.0
COc1ccc(S(=O)(=O)Nc2ccc3c(c2)CC(=O)N([C@@H](C)CO)C[C@@H](C)[C@@H](CN(C)C(=O)Nc2c(C)noc2C)O3)cc1	0.2
COc1ccc(NC(=O)N(C)C[C@H]2Oc3ccc(NS(=O)(=O)c4ccc(Cl)cc4)cc3CC(=O)N([C@@H](C)CO)C[C@@H]2C)cc1	0.6
C[C@@H]1CN([C@@H](C)CO)C(=O)c2cc(NS(=O)(=O)c3ccc(Cl)cc3)ccc2O[C@@H](C)CCCCO[C@H]1CN(C)C(=O)CCCN(C)C	0.3
Cc1ccc(S(=O)(=O)Nc2ccc3c(c2)C(=O)N([C@@H](C)CO)C[C@@H](C)[C@@H](CN(C)CC2CCCCC2)OCCCC[C@H](C)O3)cc1	-0.5

COc1ccc(CN(C)C[C@H]2OCCCC[C@H](C)Oc3ccc(NC(=O)Nc4cccc5ccccc45)cc3C(=O)N([C@H](C)CO)C[C@H]2C)cc1
  A1 apoptosis 2 = 0.6
COc1ccc(NC(=O)Nc2cccc3c2O[C@@H](CN(C)C(=O)NC2CCCCC2)[C@@H](C)CN([C@@H](C)CO)C3=O)cc1
  A1 apoptosis 2 = -0.4
CC1(C)[C@H]2CC=C(/C=N\NC(=O)CCCCCC(=O)O)[C@@H]1C2
  A1 apoptosis 2 = 0.0
COc1ccc(S(=O)(=O)Nc2ccc3c(c2)C(=O)N([C@H](C)CO)C[C@@H](C)[C@@H](CN(C)C)OCCCC[C@@H](C)O3)cc1
  A1 apoptosis 2 = 1.0
Cc1noc(C)c1NC(=O)Nc1cccc2c1O[C@H](CN(C)Cc1ccc(C(=O)O)cc1)[C@@H](C)CN([C@@H](C)CO)C2=O
  A1 apoptosis 2 = 0.9
Cc1ccc(S(=O)(=O)Nc2ccc3c(c2)CC(=O)N([C@H](C)CO)C[C@@H](C)[C@@H](CN(C)Cc2ccc(C(=O)Nc4ccccc4N)cc2)O3)cc1
  A1 apoptosis 2 = -0.4
